Bioassay records deposited in PubChem by several laboratories.
E coli growth = blocks Escherichia coli growth. OD600 absorbance (test concentration not listed). 0.21% of 330,000 active. OD600, 23 h; hits give low values. AID 1053175;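 active means OD600 absorbance below the run mean of sample wells minus 3.6 SD, in any replicate, cut at about 0.56 in these data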;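 further: stock transfer was 300 nL into about 60 µL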
UCH37 inh = inhibitors of human deubiquitinating enzyme UCH37; purified proteasome/UCH37, Ub-AMC cleavage fluorescence; inhibition, % (test concentration not listed); 0.33% of 330,000 active;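 active means mean of two replicates above 20%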;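 further: 0% = compound-free wells with enzyme and 100% = wells lacking proteasome; stock transfer was 100 nL into about 20 µL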
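Material: Human UCH37 enzyme supplied as purified proteasome complex | Schedule: 30 min preincubation with enzyme, 25 min cleavage at room temperature | Detection: AMC fluorescence 355/460 nm | Measure: % inhibition of Ub-AMC cleavage fluorescence | Controls: Wells without proteasome as full block, compound-free enzyme plus substrate as uninhibited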
ALR inh = human ALR oxidase inhibition via reduced H2O2; 3.8% of 290,000 active; inhibition, % (no concentration beside the values); purified ALR, DTT oxidation, H2O2 HRP-luminol luminescence;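 active means mean and each replicate at 75% or more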;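 further: stock transfer was 7.5 nL into about 7.5 µL; 0% = neutral wells and 100% = wells with inactivated enzyme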
Target sequence (P55789 whole entry, looked up): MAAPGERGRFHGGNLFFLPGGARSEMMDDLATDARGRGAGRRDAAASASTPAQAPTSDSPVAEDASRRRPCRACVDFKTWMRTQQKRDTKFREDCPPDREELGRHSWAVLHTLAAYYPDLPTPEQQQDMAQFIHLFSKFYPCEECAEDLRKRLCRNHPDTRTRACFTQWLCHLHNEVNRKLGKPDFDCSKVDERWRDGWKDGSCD
HNF4A DNA FP = change in binding of human HNF4 alpha to DNA; 0.3% of 360,000 active; activity change, % at 10 µM; AID 1224865; P41235; HNF4a-FITC DNA binding, fluorescence polarization, 1 h; in the data active means activity change above about 30%, passing the limit was not always enough;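 further: controls were the assay level and a saturating level of protein; the project sought stronger binding though the title names inhibitors; some compounds called inactive have numbers as strong as hits; positive values seem to mean higher polarization but the record does not say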
Target sequence (P41235 whole entry, looked up): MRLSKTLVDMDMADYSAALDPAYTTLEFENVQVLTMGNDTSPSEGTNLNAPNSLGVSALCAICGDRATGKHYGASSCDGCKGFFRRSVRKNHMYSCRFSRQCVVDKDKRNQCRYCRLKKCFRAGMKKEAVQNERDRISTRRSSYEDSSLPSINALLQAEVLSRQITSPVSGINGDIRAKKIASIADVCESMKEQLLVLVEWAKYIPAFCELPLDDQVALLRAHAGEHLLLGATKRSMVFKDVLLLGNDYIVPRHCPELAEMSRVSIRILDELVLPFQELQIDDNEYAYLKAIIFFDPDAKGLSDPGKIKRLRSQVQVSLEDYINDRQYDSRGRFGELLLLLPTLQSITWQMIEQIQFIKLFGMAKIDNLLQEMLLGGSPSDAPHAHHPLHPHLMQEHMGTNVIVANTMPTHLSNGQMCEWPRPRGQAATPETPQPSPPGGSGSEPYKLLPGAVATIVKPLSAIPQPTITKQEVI
LANA-H2B inh = blocks KSHV LANA binding to histone H2A/H2B. Q9QR71. cell-free LANA-H2A/H2B peptide, fluorescence polarization. inhibition, % (concentration not given with the values). 0.6% of 320,000 active; in the data active means inhibition mostly above about 10%, no sharp cut-off; inactive means mostly below about 6.7%;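 further: stock transfer was 7.5 nL into about 10 µL; 0% = median of vehicle wells and 100% = median of positive control wells; one replicate is shown; the record names a cut of 25% in any replicate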
B2AR ag = human beta-2 adrenergic receptor agonism by FAP; Am2.2-beta2AR cells, FAP receptor internalization, flow cytometry; reference of the scale not given here; response, % (concentration not given with the values); 0.43% of 340,000 active;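 active means response above a set limit, near 3 SD of response in nonfluorescent compounds, cut at about 42% in these data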;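 further: stock transfer was 100 nL into about 11 µL; a reference agonist was the positive control; negative values mostly stem from fluorescent compounds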
Target sequence (P07550 whole entry, looked up): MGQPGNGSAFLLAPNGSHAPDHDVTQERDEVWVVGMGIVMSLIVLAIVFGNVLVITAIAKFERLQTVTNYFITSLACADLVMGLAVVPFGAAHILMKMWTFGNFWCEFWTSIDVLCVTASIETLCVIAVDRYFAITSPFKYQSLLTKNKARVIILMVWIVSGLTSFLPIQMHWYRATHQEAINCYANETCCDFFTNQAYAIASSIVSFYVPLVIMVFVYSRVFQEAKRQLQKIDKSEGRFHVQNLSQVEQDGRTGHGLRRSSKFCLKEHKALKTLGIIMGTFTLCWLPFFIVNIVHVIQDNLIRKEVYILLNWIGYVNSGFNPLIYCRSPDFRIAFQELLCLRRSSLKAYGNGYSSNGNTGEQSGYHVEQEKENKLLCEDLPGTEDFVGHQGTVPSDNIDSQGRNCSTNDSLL
FGF22 binding = FGF22 (human) thermal shift binding; 1.5% of 340,000 active; AID 651658; calls only at 9.99 µM; recombinant FGF22 thermal shift, SYPRO orange fluorescence; percent of sucrose octasulfate shift, DMSO zero; Q9HCT0;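 active means melting point raised past a set limit in the mean and every replicate; three in four hits are not shown here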
An asterisk follows results filed as active.

Screening CC12CCC(=O)N1C(C(=O)Nc1nc(-c3ccccc3Cl)cs1)CS2 (stereo unspecified) returned E coli growth 0.66, UCH37 inh 0.1, ALR inh -11, HNF4A DNA FP 0.8, LANA-H2B inh 6.5, B2AR ag 1 and FGF22 binding inactive.
`CC(=O)Nc1ccc(NC(=O)Cc2ccc(S(=O)(=O)N3CCCCC3)s2)cc1` gave E coli growth 0.73, UCH37 inh -0.8, ALR inh -79, HNF4A DNA FP 3.0, LANA-H2B inh -2.0 and B2AR ag -4.
`COc1ccc(CN2CCN(Cc3ccc(CO)o3)CC2CCO)cc1C` (stereo unspecified) gave E coli growth 0.66, UCH37 inh 0.8, HNF4A DNA FP 0.8, LANA-H2B inh -7.3, B2AR ag 5 and FGF22 binding inactive.
Screening C[C@H](O)[C@@H]1C(=O)N2CCc3ccc(N4CCOCC4)cc3[C@@H]2C[C@@H]1N(C)C(=O)Nc1ccccc1 returned HNF4A DNA FP 2.9, B2AR ag -14 and FGF22 binding inactive.
Screening Cc1cccc(-c2noc(CN(C)C(=O)c3ccc4c(c3)OCO4)n2)c1 returned E coli growth 0.65, UCH37 inh -0.7, ALR inh -17, HNF4A DNA FP 0.5, LANA-H2B inh 11, B2AR ag 0 and FGF22 binding inactive.
For Cc1csc(NC(=O)c2ccc(C)o2)n1 the results were E coli growth 0.71, UCH37 inh 2.9, ALR inh 45, HNF4A DNA FP -3.7, LANA-H2B inh -6.5, B2AR ag -7 and FGF22 binding inactive.
For CC1=NN(C(=O)CCc2ccccc2)C(O)(c2ccncc2)C1 (stereo unspecified) the results were E coli growth 0.63, UCH37 inh 2.0, ALR inh 0, HNF4A DNA FP 0.2, LANA-H2B inh -0.7, B2AR ag 8 and FGF22 binding inactive.
For CCOC(=O)N1CCN(c2nnc(-c3ccccc3)c3ccccc23)CC1 the results were E coli growth 0.67, UCH37 inh 0.7, ALR inh -5, HNF4A DNA FP -2.5, LANA-H2B inh -4.0, B2AR ag -10 and FGF22 binding inactive.
Screening CCN(CC)C(=O)COc1ccc(CC(=O)O)cc1OC returned E coli growth 0.68, UCH37 inh 0.7, ALR inh -2, HNF4A DNA FP 1.3, LANA-H2B inh -0.4 and B2AR ag -4.
`Cc1cc(=O)n2[nH]c(C(F)(F)F)c(-c3ccccc3)c2n1` gave E coli growth 0.63, UCH37 inh -20, ALR inh 1, HNF4A DNA FP 1.3, LANA-H2B inh 2.6 and B2AR ag -3.
`CSCCC(Nc1ncnc2ccc(Br)cc12)C(=O)O` (stereo unspecified) gave E coli growth 0.69, UCH37 inh 7.8, ALR inh -1, HNF4A DNA FP 2.8, LANA-H2B inh 2.7, B2AR ag -97 and FGF22 binding inactive.
Screening Cn1cc(S(=O)(=O)N2CCCC2)cc1C(=O)NCCc1ccccc1 returned E coli growth 0.69, UCH37 inh 0.5, ALR inh 1, HNF4A DNA FP 1.6, LANA-H2B inh -2.0, B2AR ag 0 and FGF22 binding inactive.
Screening CCOc1ccc(CCNC(=O)COC(=O)C2CCN(c3ccc(C(F)(F)F)cn3)CC2)cc1OCC returned E coli growth 0.69, UCH37 inh -1.1, ALR inh 0, HNF4A DNA FP -0.9, LANA-H2B inh 2.5, B2AR ag 0 and FGF22 binding inactive.
Screening CCn1c(SCC(=O)NC2CC2)nnc1C(C)Oc1ccccc1 (stereo unspecified) returned E coli growth 0.68, UCH37 inh 0.4, ALR inh -1, HNF4A DNA FP -0.3, LANA-H2B inh 2.9, B2AR ag 1 and FGF22 binding inactive.
`Cc1cc(C)nc(SCC(=O)N/N=C/c2cccn2-c2cccc(C(F)(F)F)c2)n1` gave ALR inh -33, HNF4A DNA FP -1.0, LANA-H2B inh 1.5 and B2AR ag -14.
For Cc1sc(NC(=O)c2ccco2)c(CN2CCN(c3ccccn3)CC2)c1C the results were E coli growth 0.72, UCH37 inh -4.2, ALR inh 1, HNF4A DNA FP 2.5, LANA-H2B inh 2.6 and B2AR ag -6.
CCCNc1c(NS(=O)(=O)c2ccc(NC(=O)CC)cc2)c(=O)oc2ccccc12 was read as E coli growth 0.66, UCH37 inh -1.6, ALR inh -1, HNF4A DNA FP 0.2, LANA-H2B inh -1.4, B2AR ag 8 and FGF22 binding inactive.
For Cc1c(C(=O)NCc2ccc3c(c2)OCO3)oc2ccc(S(=O)(=O)N3CCCC3)cc12 the results were E coli growth 0.72, UCH37 inh 1.7, ALR inh 0, HNF4A DNA FP 3.1, LANA-H2B inh -0.1 and B2AR ag 4.
For CC(C)C(=O)Nc1ccc(-c2nc3cccnc3o2)cc1 the results were E coli growth 0.65, UCH37 inh -413, ALR inh 1, HNF4A DNA FP -3.6, LANA-H2B inh -5.4 and B2AR ag 30.
`O=C(CN1CCCCCCC1)N/N=C/c1ccc(F)cc1F` gave ALR inh -4, HNF4A DNA FP 1.8, LANA-H2B inh -11 and B2AR ag -2.
For COc1ccc(C2=NOC(Cn3c(Cc4ccc(Cl)cc4)nc4c3c(=O)n(C)c(=O)n4C)C2)cc1 (stereo unspecified) the results were E coli growth 0.73, UCH37 inh 1.2, ALR inh -6, HNF4A DNA FP 2.1, LANA-H2B inh 2.8 and B2AR ag -3.
`CC1CCCN(S(=O)(=O)c2ccc(S(=O)(=O)N3CCCN(Cc4ccccc4)C3)cc2)C1` (stereo unspecified) gave E coli growth 0.71, UCH37 inh 1.0, HNF4A DNA FP -2.2 and B2AR ag 3.
For COc1cnc(-c2ccccn2)nc1Sc1ccc(F)cc1 the results were E coli growth 0.7, UCH37 inh 2.7, ALR inh 5, HNF4A DNA FP -0.3, LANA-H2B inh -1.4 and B2AR ag -17.
Screening CCCCC(=O)NC(=S)Nc1c(C)cc(Br)cc1C returned E coli growth 0.72, UCH37 inh -1.4, ALR inh -5, HNF4A DNA FP 25, LANA-H2B inh 4.6, B2AR ag 0 and FGF22 binding inactive.
For Cc1ccccc1NS(=O)(=O)c1nnc(NC(=O)c2ccccc2C)s1 the results were E coli growth 0.72, UCH37 inh 4.2, ALR inh -4, HNF4A DNA FP -3.4, LANA-H2B inh 3.1, B2AR ag 17 and FGF22 binding inactive.
COc1ccc2cc(CCNC(=O)c3cccc([N+](=O)[O-])c3)c(=O)[nH]c2c1 was read as E coli growth 0.69, UCH37 inh 7.2, ALR inh 21, HNF4A DNA FP -0.1, LANA-H2B inh 0.6, B2AR ag -10 and FGF22 binding inactive.
Screening O=C(NCC1CCCO1)c1csc2c1CCCC2 (stereo unspecified) returned E coli growth 0.73, UCH37 inh 1.8, ALR inh -15, HNF4A DNA FP -1.1, LANA-H2B inh -3.6, B2AR ag -2 and FGF22 binding inactive.
COCCN(CCOC)C(=O)COC(=O)c1ccc(Cl)c(S(=O)(=O)N(C)c2ccccc2)c1 was read as E coli growth 0.66, UCH37 inh -1.5, ALR inh -2, HNF4A DNA FP 2.7, LANA-H2B inh 1.3, B2AR ag 3 and FGF22 binding inactive.
For CCN(CC(=O)Nc1ccccc1C(F)(F)F)C(=O)c1oc2ccc(OC)cc2c1C the results were E coli growth 0.63, UCH37 inh -15, ALR inh -2, HNF4A DNA FP 4.8, LANA-H2B inh 1.1, B2AR ag -7 and FGF22 binding inactive.
For Cc1cc(C)nc(N/N=C/c2cccc([N+](=O)[O-])c2)n1 the results were ALR inh -4, HNF4A DNA FP -0.6, LANA-H2B inh -3.9, B2AR ag -9 and FGF22 binding inactive.
For CC(C)n1c(NCc2ccccc2O)nc2ccccc21 the results were E coli growth 0.67, UCH37 inh 2.5, ALR inh 98*, HNF4A DNA FP 3.5, LANA-H2B inh -4.1, B2AR ag -4 and FGF22 binding inactive.
CCn1nc(C(=O)NCC(c2cccs2)N2CCOCC2)c2ccccc2c1=O (stereo unspecified) was read as E coli growth 0.66, UCH37 inh 0.8, ALR inh -2, HNF4A DNA FP 0.9, LANA-H2B inh 3.7, B2AR ag -7 and FGF22 binding inactive.
`CCCCC(=O)N1CCN(c2nc3ccc(OCC)cc3s2)CC1` gave E coli growth 0.72, UCH37 inh 3.9, ALR inh -8, HNF4A DNA FP 11, LANA-H2B inh -0.9, B2AR ag 0 and FGF22 binding inactive.
For CCn1c(Cc2ccccc2)nnc1SCC(=O)Nc1nccs1 the results were E coli growth 0.68, UCH37 inh 2.3, ALR inh -2, HNF4A DNA FP 2.8, LANA-H2B inh 1.0 and B2AR ag -7.
For CCOCCCNc1ncc2c(n1)CC(c1ccc(C)cc1)CC2=O (stereo unspecified) the results were E coli growth 0.71, UCH37 inh 0.6, ALR inh -5, HNF4A DNA FP -1.4, LANA-H2B inh 2.9 and B2AR ag 9.
Screening COC(=O)c1sc(N2C(=O)c3oc4ccccc4c(=O)c3C2c2cccs2)nc1C (stereo unspecified) returned E coli growth 0.74, UCH37 inh -12, HNF4A DNA FP 0.0 and B2AR ag 0.
Screening O=C(NCCN1CCOCC1)C1CCC(CNS(=O)(=O)c2ccccc2)CC1 (stereo unspecified) returned E coli growth 0.67, UCH37 inh 3.3, HNF4A DNA FP 2.6 and B2AR ag -1.
Screening O=[N+]([O-])c1cc([N+](=O)[O-])c2cccnc2c1Oc1ccccc1O returned E coli growth 0.69, UCH37 inh 9.0, ALR inh 0, HNF4A DNA FP 3.1, B2AR ag 51* and FGF22 binding inactive.
CCN(CC)C(=O)c1sc2nc(-c3ccncc3)[nH]c(=O)c2c1C was read as E coli growth 0.72, UCH37 inh -15, ALR inh -1, HNF4A DNA FP -0.1, LANA-H2B inh -3.2 and B2AR ag -1.
`Cc1ccc(C(=O)N2CCOCC2)cc1[N+](=O)[O-]` gave E coli growth 0.71, UCH37 inh 2.3, ALR inh -13, HNF4A DNA FP -4.0, LANA-H2B inh -1.5 and B2AR ag 2.
CCOc1ccc(C(=O)OCC(=O)NCc2ccccc2)cc1OCC was read as E coli growth 0.67, UCH37 inh 4.0, HNF4A DNA FP 0.2, LANA-H2B inh -2.0, B2AR ag -11 and FGF22 binding inactive.
`CC1=NNC(=O)C1CCC(=O)N/N=C\c1ccccc1[N+](=O)[O-]` (stereo unspecified) gave ALR inh 48, HNF4A DNA FP -0.6, LANA-H2B inh 4.5 and B2AR ag -3.
C/C(N)=C(/C#N)C(=O)COC(=O)CSc1ccccc1 was read as E coli growth 0.7, UCH37 inh 2.3, ALR inh 4, HNF4A DNA FP 1.2, LANA-H2B inh 3.2 and B2AR ag 21.
For CC1=NC(=O)C(N=Nc2ccccc2C(=O)O)N1c1ccccc1 (stereo unspecified) the results were E coli growth 0.63, UCH37 inh 21*, HNF4A DNA FP -1.5, B2AR ag 6 and FGF22 binding inactive.
For CN(C(=O)COc1ccc2c(-c3ccccc3)cc(=O)oc2c1)C1CCS(=O)(=O)C1 (stereo unspecified) the results were E coli growth 0.71, UCH37 inh 3.3, ALR inh 4, HNF4A DNA FP 17, LANA-H2B inh 0.8, B2AR ag -7 and FGF22 binding inactive.

Retrieved one by one from the entries so far (five):
`CC1CCCN(S(=O)(=O)c2ccc(S(=O)(=O)N3CCCN(Cc4ccccc4)C3)cc2)C1` (stereo unspecified) gave E coli growth 0.71, UCH37 inh 1.0, HNF4A DNA FP -2.2 and B2AR ag 3.
Screening CC12CCC(=O)N1C(C(=O)Nc1nc(-c3ccccc3Cl)cs1)CS2 (stereo unspecified) returned E coli growth 0.66, UCH37 inh 0.1, ALR inh -11, HNF4A DNA FP 0.8, LANA-H2B inh 6.5, B2AR ag 1 and FGF22 binding inactive.
For Cc1csc(NC(=O)c2ccc(C)o2)n1 the results were E coli growth 0.71, UCH37 inh 2.9, ALR inh 45, HNF4A DNA FP -3.7, LANA-H2B inh -6.5, B2AR ag -7 and FGF22 binding inactive.
For CC1=NC(=O)C(N=Nc2ccccc2C(=O)O)N1c1ccccc1 (stereo unspecified) the results were E coli growth 0.63, UCH37 inh 21*, HNF4A DNA FP -1.5, B2AR ag 6 and FGF22 binding inactive.
Screening O=C(NCCN1CCOCC1)C1CCC(CNS(=O)(=O)c2ccccc2)CC1 (stereo unspecified) returned E coli growth 0.67, UCH37 inh 3.3, HNF4A DNA FP 2.6 and B2AR ag -1.

A portion of the library; the hit share may differ from the screen's.
